Compound activity (PubChem BioAssay)
LANA-nucl inh – inhibitors of KSHV LANA binding to nucleosomes | FITC-LANA1-23 / chicken nucleosome fluorescence polarization; active compounds read low | z-score (test concentration not listed) | 51,000 tested, 0.3% active | AID 720717;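 active = both repeat wells score below -2 in polarization z-score versus plate sample wells, excluding overly bright wells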;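 note: 100 nL library stock added to about 30 µL; numbers are from one replicate; some results filed as inactive read as strong as hits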
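Assay system: FITC-LANA peptide and chicken nucleosomes; input: 240 nM purified chicken nucleosomes (480 nM peptide binding sites), final; also added: 50 nM FITC-LANA1-23 probe; medium: TEN-BT buffer, pH 7.5; doses: pin-transferred compound, 100 nL; times: 10–45 min, room temperature; technique: fluorescence polarization; replication: duplicates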
Ab BasE inh – BasE siderophore biosynthesis inhibition; 84,000 tested, 0.1% active; purified BasE, fluorescence polarization binding displacement; inhibition, % (no concentration beside the values);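 active = both replicates above 25% with normal brightness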;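 note: 0% = negative plate control signal and 100% = positive plate control signal; stock transfer was 100 nL into about 30 µL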
* = called active by the depositor; . = not tested or not shown. Not all compounds are listed; count on the stated rates, not on these rows.

SMILES | LANA-nucl inh | Ab BasE inh
COc1ccc(Cl)c(OC)c1C(=O)NC(=O)Nc1c(C)cccc1C | . | 0.2
COc1ccc2c(c1)cc1n2CCN2CCCN=C12 | -0.018 | -2.4
CC1(C)CC(=O)C2=C(C1)NC(Nc1nc3ccccc3o1)=NC2c1ccccn1 (stereo not given) | 0.06 | -2.1
O=C(O)C(Cc1ccccc1)N1Cc2ccccc2C1=O (stereo not given) | 0.68 | .
CC(=O)Nc1ncc2c(n1)CC(c1ccc(Cl)cc1)CC2=O (stereo not given) | -0.045 | 0.4
O=C1c2ccccc2C(=O)C1(CO)c1ccccc1 | . | 1.7
CCOC(=O)/C=C1\SCC(=O)N1CCOC(=O)c1cc(Cl)c(N)cc1OC | . | -0.1
Cn1c2ccccc2c2cc(C(=O)N/N=C/c3ccc(-c4ccc(S(N)(=O)=O)cc4)o3)sc21 | . | -0.6
CCC(Oc1ccc2c(c1)OCO2)C(=O)O (stereo not given) | 2 | -5.5
O=C(O)CC(c1cccc(O)c1)N1Cc2ccccc2C1=O (stereo not given) | 0.4 | .
CCOc1ccc(CNc2ccc(N3CCOCC3)cc2)cc1OC | -0.16 | 3.0
CCn1c(SCC(=O)Nc2c(Cl)cc(S(N)(=O)=O)cc2Cl)nc2ccccc21 | . | -1.2
CCN(CC)N=Nc1ccc(C(=O)O)cc1 | 0.31 | 0.1
COc1cc(Cl)c(C)cc1NC(=S)N(Cc1cccnc1)Cc1ccco1 | 0.13 | 1.8
O=C(Nc1ccccc1OC(F)F)C1(c2ccccc2)CC1 | . | -0.4
CCn1c(SCC(=O)Nc2ccccc2)nc2c(c1=O)SCC2 | -0.35 | 0.8
CCC(=O)Nc1ccc2c(c1)ncn2C | -0.33 | -0.7
COc1cccc(N2C(=O)/C(=C/C=C/c3ccco3)C(=O)NC2=S)c1 | 6.2 | 15
CCNC(=S)Nc1cccc(NC(=O)c2ccccc2O)c1 | -0.1 | 2.6
C/C(=N\Oc1nc(-c2ccccc2)ns1)c1cccs1 | 0.086 | 0.1
CS(=O)(=O)N1CCN(c2ccc(NC(=O)c3ccc4c(c3)OCO4)cc2)CC1 | 0.65 | -1.2
Cc1ccc(N2C(N)=C(C#N)C(c3cccnc3)C3=C2CC(C)(C)CC3=O)cc1 (stereo not given) | -0.04 | 0.1
O=C(CSc1nnc(-c2ccc(Cl)cc2)n1CC1CCCO1)Nc1ccc2c(c1)OCCO2 (stereo not given) | . | -2.1
CC(=O)NNc1ccc2nnc(-c3ccccc3)n2n1 | -1.6 | 1.0
O=c1c2oc3ccccc3c2n(Cc2ccc(F)cc2)c(=O)n1Cc1ccc2c(c1)OCO2 | 0.22 | 1.1
SMILES | LANA-nucl inh | Ab BasE inh
CC(=O)O/N=C(\N)c1ccc(Br)cc1 | -0.69 | 1.7
COC(=O)C(Cc1c[nH]c2ccccc12)NS(=O)(=O)c1ccc(CNC(=O)c2ccccc2)s1 (stereo not given) | . | -1.8
COc1ccc(-n2c(-c3ccc(C(C)(C)C)cc3)n[nH]c2=S)cc1 | . | 3.8
C=CC(=O)Nc1cc(C(=O)OC)ccc1C(=O)OC | . | -2.4
CC(C)Cn1cc(NC(=O)NCc2ccccn2)c2ccccc2c1=O | . | 1.3
COC(=O)c1ccc(C(c2c(O)ccc3ccccc23)N2CCOCC2)cc1 (stereo not given) | . | 1.9
O=c1c2ccccc2nc2c3ccccc3c(NCCO)nn12 | -0.63 | -0.1
CCC1CCCCN1C(=O)c1cc(-c2ccc(OC)c(OC)c2)on1 (stereo not given) | -0.24 | -2.8
COc1ccc(OC)c2c(N3CCOCC3)cc(C(F)(F)F)nc12 | . | 2.7
O=C(O)C1=NN(c2ccccc2)C(=O)CC1 | -0.62 | 2.6
CCOC(=O)c1cccc(NC(=O)c2c(C)[nH]c(C(=O)OCC)c2CC)c1 | 0.055 | 0.1
CC(C)(C)C(=O)c1sc2c(c1N)c(=O)[nH]c(=O)n2CC1CCCO1 (stereo not given) | . | -2.1
Cc1cc2c(=O)n(Cc3ccco3)c(SCC(N)=O)nc2s1 | 0.27 | -0.9
O=C(Cn1c2ccc(F)cc2c2nc3n(c(=O)c21)CCS3)N1CCCC1 | 3 | -2.2
CC1=Nc2ccc(Br)cc2C(c2ccccc2)N1CC(=O)NN (stereo not given) | . | -1.0
Cc1ccc2oc(=O)c(-c3nc(-c4ccccc4)no3)cc2c1 | 0.67 | 0.5
Cc1ccc(-c2cc(-c3c(C)n[nH]c(=O)c3N)[nH]n2)cc1 | 0.25 | 1.3
Cc1cccn2c(=O)c(/C=C(\C#N)C(=O)N3CCCCC3)c(N3CCOCC3)nc12 | 3 | -2.4
CCNS(=O)(=O)c1cc(-c2nn(C)c(=O)c3ccccc23)ccc1C | . | 1.1
c1ccc2sc(C3CCCCN3)nc2c1 (stereo not given) | . | -1.9
COC(=O)C1=C(C)OC(=O)C1(NC(=O)C1CCCCC1)C(F)(F)F (stereo not given) | 0.49 | 1.0
O=C(CC1CCCC1)NCc1cn2ccsc2n1 | -0.98 | 1.1
CC(C)N(C(=O)CSc1nc2ccccc2n1CC(=O)N1C(C)CCCC1C)C(C)C (stereo not given) | -0.96 | -1.0
Cc1ccc(NC(=O)NN2CCOCC2)cc1 | -2.2 | 2.7
Cc1n[nH]c(C)c1N=Nc1ccc(Br)cc1 | . | 2.2

Molecules shown so far with a halogen, in the order listed:
SMILES | LANA-nucl inh | Ab BasE inh
COc1ccc(Cl)c(OC)c1C(=O)NC(=O)Nc1c(C)cccc1C | . | 0.2
CC(=O)Nc1ncc2c(n1)CC(c1ccc(Cl)cc1)CC2=O (stereo not given) | -0.045 | 0.4
CCOC(=O)/C=C1\SCC(=O)N1CCOC(=O)c1cc(Cl)c(N)cc1OC | . | -0.1
CCn1c(SCC(=O)Nc2c(Cl)cc(S(N)(=O)=O)cc2Cl)nc2ccccc21 | . | -1.2
COc1cc(Cl)c(C)cc1NC(=S)N(Cc1cccnc1)Cc1ccco1 | 0.13 | 1.8
O=C(Nc1ccccc1OC(F)F)C1(c2ccccc2)CC1 | . | -0.4
O=C(CSc1nnc(-c2ccc(Cl)cc2)n1CC1CCCO1)Nc1ccc2c(c1)OCCO2 (stereo not given) | . | -2.1
O=c1c2oc3ccccc3c2n(Cc2ccc(F)cc2)c(=O)n1Cc1ccc2c(c1)OCO2 | 0.22 | 1.1
CC(=O)O/N=C(\N)c1ccc(Br)cc1 | -0.69 | 1.7
COc1ccc(OC)c2c(N3CCOCC3)cc(C(F)(F)F)nc12 | . | 2.7
O=C(Cn1c2ccc(F)cc2c2nc3n(c(=O)c21)CCS3)N1CCCC1 | 3 | -2.2
CC1=Nc2ccc(Br)cc2C(c2ccccc2)N1CC(=O)NN (stereo not given) | . | -1.0
COC(=O)C1=C(C)OC(=O)C1(NC(=O)C1CCCCC1)C(F)(F)F (stereo not given) | 0.49 | 1.0
Cc1n[nH]c(C)c1N=Nc1ccc(Br)cc1 | . | 2.2

The list continues.
SMILES | LANA-nucl inh | Ab BasE inh
CCSc1nnc(NC(=O)c2ccc(C)c(S(=O)(=O)N(CC)CC)c2)s1 | . | 0.2
O=C(O)CN(CC(=O)O)C(=O)/C=C/c1ccccc1 | . | 0.5
NC(=O)COc1ncnc2ccc(Br)cc12 | . | 4.3
C=CCSc1nnc2c(n1)OC(c1cc3c(cc1Br)OCO3)N(C(C)=O)c1ccccc1-2 (stereo not given) | 0.22 | -0.5
O=C(c1cc2c(s1)-c1ccccc1CC2)N1CCN(Cc2ccccc2)CC1 | 0.23 | .
Cc1cc(=O)[nH]c(NNC(=S)Nc2ccc(S(=O)(=O)N3CCOCC3)cc2)n1 | . | 1.0
Cc1cc(C)c(C#N)c(N2CCC(C(N)=O)CC2)n1 | -0.27 | -2.0
FC(F)(F)c1cccc(-c2nc3ccccn3n2)c1 | . | -0.6
O=c1c2ccc(-c3nnc(SCCCOc4ccccc4)o3)cc2nc2n1CCCCC2 | . | 0.8
COc1ccc(OCCOC(=O)c2cccc(C#N)c2)cc1 | . | 0.5
CCOC(=O)N1CCC(=NNc2ncc(C(F)(F)F)cc2Cl)CC1 | . | 0.4
CCN(CC)S(=O)C12CC3CC(CC(C3)C1)C2 (stereo not given) | 0.21 | -1.4
CSc1nc(N)c(C#N)c(C(C)C)c1C#N | -0.24 | 0.5
Cn1c(=O)c2c(SCC(=O)NCC3CCCO3)nc(-c3ccccc3)nc2n(C)c1=O (stereo not given) | -1.5 | 1.2
Cc1ccc(C(=O)OCC(=O)NC2CCCCC2C)cc1 (stereo not given) | . | -0.7
CCCN1CCC(NC(=S)Nc2ccc3c(c2)OCO3)CC1 | -0.57 | -1.1
c1ccc(-c2cc3c(NC4CC4)ncnc3s2)cc1 | . | -8.1
Nc1ccc2nn(-c3ccc(Cl)cc3)nc2c1 | -1.7 | 1.0
CCOC(=O)c1sc(Sc2ccc(C(F)(F)F)cn2)c2c1CC(C)(C)CC2=O | . | -1.6
COCCCNC1CCN(Cc2ccccc2)CC1 | 0.22 | -1.1
CC(=O)Nc1ccc(I)cc1C(=O)O | -0.13 | -0.3
CSc1ccccc1C(=O)NCCCN1CCOCC1 | 1.5 | -0.1
O=C(NC(Cc1ccccc1)C(=O)O)c1ccccc1 (stereo not given) | 0.093 | -2.4
O=C1OCc2ccc(NC(=O)C3CCCCC3)cc21 | -1.2 | -1.4
Cc1cc(C)n(-c2nc3c(c(C(F)(F)F)n2)CC(C)CC3)n1 (stereo not given) | -0.052 | 2.2
SMILES | LANA-nucl inh | Ab BasE inh
COc1c2c(nc3ccccc13)OC(C(C)(O)CO)C2 (stereo not given) | -0.71 | -1.8
C=CCNC(=O)c1cc2c(=O)n3cccc(C)c3nc2n(CC2CCCO2)c1=N (stereo not given) | . | 0.6
CC1(C)CC(=O)C=C(NCc2ccc(S(N)(=O)=O)cc2)C1 | 0.72 | 4.9
CC(=O)Nc1ccc(S(=O)(=O)NCCC(=O)Nc2ccc3c(c2)OC2(CCCC2)O3)cc1 | . | 1.4
O=C(Nc1ccccc1)Nc1nnc(C(F)(F)F)s1 | . | 0.9
O=C(NC1CCCCNC1=O)c1cccnc1Oc1ccc(Cl)cc1 (stereo not given) | . | 4.4
CN1CCN(c2nc(-c3cc4ccccc4o3)cs2)CC1 | . | -0.6
Cc1nnc(SCC(=O)Nc2cccc(C(F)(F)F)c2)o1 | 2 | -2.9
O=C(c1ccc(Cl)c(S(=O)(=O)N2CCOCC2)c1)N1CCN(c2ccccc2F)CC1 | -0.21 | 0.1
CC(CN(C)C)OC(=O)c1ccc2c(c1)OCO2 (stereo not given) | -0.11 | -1.9
Cc1cc(CN)c2[nH]c(C)c(C)c2c1 | -0.67 | -1.6
Cc1c(CCC(=O)O)c(=O)[nH]c2ccccc12 | -0.49 | -2.3
CNCc1cccs1 | . | -0.9
CC(=O)OC(C#N)[C@H]1O[C@@H]2OC(C)(C)O[C@@H]2[C@H]1OC(C)=O (stereo not given in full) | . | -0.5
O=S(=O)(c1ccccc1)c1nc(N(CCO)c2ccccc2)sc1Cl | . | -2.5
C/C(N)=C(/C#N)C(=O)COc1ncnc2c1cnn2-c1ccccc1 | . | -4.3
CCCc1nnc(NC(=O)c2oc3cc(C)c(C)cc3c2C)s1 | 0.85 | -0.6
CC(C)(C)OC(=O)NCc1cccs1 | 2.5 | 1.0
N#C/C(=C/C=C/c1ccco1)c1nc2ccccc2[nH]1 | 0.65 | -4.7
CCCCC(=O)Nc1ccc(NC(=O)C2CC2)nc1 | -0.89 | -0.9
Cc1cc2n(n1)C(O)(C(F)(F)F)CC(O)(C(F)(F)F)N2 (stereo not given) | -1.6 | -0.1
COc1ccc(CN2CCC(C(=O)NC3CCCC3)CC2)cc1 | 0.16 | -3.2
O=C(Cn1cccc1C(=O)c1ccccc1)NCCCN1CCN(C2CCCCC2)CC1 | 0.29 | -0.4
NC(N)=N/N=C/c1cn(-c2ccccc2)nc1-c1ccccc1 | . | -9.2
Cc1cc(-c2ccc(S(=O)(=O)N3CCC(C)CC3)cc2)on1 | -0.64 | 0.8
SMILES | LANA-nucl inh | Ab BasE inh
Cc1ccc(OCCOc2ncnc3sccc23)cc1 | . | -1.3
O=C(c1cccnc1)N(Cc1ccco1)Cc1cc2ccccc2[nH]c1=O | -0.73 | -29
CCN(C(=O)Nc1ccccc1)C1CCCCC1 | -0.4 | 0.2
O=C1/C(=C/c2ccccc2O)CC/C1=C\c1ccccc1O | -0.97 | 1.5
Cc1cccc(Oc2ccccc2NC(=O)NC(C)(C)C)c1 | . | 0.8
CC(C)C1(C)C(=O)N=C2c3ccccc3C(=O)N21 (stereo not given) | . | 2.3
O=c1oc2ccccc2n1CN1CCN(Cc2ccccc2)CC1 | . | 1.8
CC(C)(C)NC(=O)NC(=O)CN1CCCCCCC1 | . | 0.5
Cc1cccn2cc(CNC(=O)CC3CCCCC3)nc12 | 0.92 | 1.5
O=C(CC1CCCC1)Nc1nc2ccccc2s1 | . | 1.1
N#CSCCCOc1ccc(Cl)cc1 | -0.15 | -1.9
NC(=O)C1CCN(C(=O)CSCc2ccc(Br)cc2)CC1 | 0.85 | -1.9
Cc1cc(C(=O)COC(=O)c2ccc3c(c2)C(=O)N(CCC(C)C)C3=O)c(C)n1-c1nccs1 | . | 0.6
Cc1noc(-c2ccccc2OC(=O)c2ccccc2)n1 | . | 0.8
COc1ccc2[nH]cc(C(=O)O)c(=O)c2c1 | -0.72 | 0.6
O=C(CN1CCN(c2ccccn2)CC1)N(c1ccccc1)c1ccc2ccccc2c1 | -0.51 | 2.2
COc1ccc(NC(=O)C2(c3ccc(OC)cc3)CCOCC2)cc1 | 0.43 | -0.1
COC(=O)C1=CN(C2CC2)C=C(C(=O)OC)C1c1cccc(OC)c1 | 0.1 | 3.5
O=S(=O)(c1cccs1)N1CCN(Cc2ccccc2)CC1 | -0.24 | .
CC(C)(C#N)N1CCN(C(c2ccccc2)c2ccccc2)CC1 | -1.1 | .
